Compound activity from PubChem.
Rce1 inhib – yeast Rce1p protease inhibitors, primary screen, biochemical, fluorescence, cell-free homogeneous; CAAX prenyl protease 2 (Saccharomyces cerevisiae (strain ATCC 204508 / S288c)), Q03530; yeast membranes, quenched prenylated peptide cleavage fluorescence; calls only; hit rate 0.27% among 290,000; AID 2563, 2010;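 active means fall in fluorescence gain of 50% or more versus controls, with final raw signal at or below 3038400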;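 further: plate controls were neutral control wells for no effect and wells lacking membranes for full effect; tested at 10 µM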
Target sequence (Q03530 whole entry, looked up): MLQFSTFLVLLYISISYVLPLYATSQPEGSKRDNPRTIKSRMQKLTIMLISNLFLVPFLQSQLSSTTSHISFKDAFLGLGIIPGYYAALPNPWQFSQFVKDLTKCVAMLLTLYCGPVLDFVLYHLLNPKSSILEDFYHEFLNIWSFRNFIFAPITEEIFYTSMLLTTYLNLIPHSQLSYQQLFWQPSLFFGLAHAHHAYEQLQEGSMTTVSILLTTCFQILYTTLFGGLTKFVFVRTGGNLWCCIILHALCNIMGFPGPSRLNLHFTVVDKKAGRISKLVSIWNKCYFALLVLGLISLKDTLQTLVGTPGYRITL
eIF4H inh – human eIF4H binding inhibitors, primary screen, translation initiation inhibitor project, biochemical, uHTS, fluorescence polarization; Eukaryotic translation initiation factor 4H (Homo sapiens), Q15056; eIF4H fluorescence polarization binding assay; inhibition, % at 35 µM; hit rate 0.94% among 290,000; AID 2012, 2009;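 active means 50% or more with normal probe brightness, or confirmed in later tests; about a fifth of its hits are not listed in these tables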;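 further: calls also rest on retests at 20 µM and on dose response follow-up; 0% = protein and probe with vehicle and 100% = probe without protein; strong numbers were not always called active; many hits fall short of the cut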
PABP polyA inh – PABP poly(A) RNA binding inhibitors, primary screen, biochemical, fluorescence polarization, uHTS. hit rate 1% among 290,000. inhibition, % at 35 µM;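 active means 50% or more with normal probe brightness, or confirmed in later tests; about a fifth of its hits are not listed in these tables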;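 further: calls also rest on retests at 20 µM and on dose response follow-up; controls were probe without protein and protein plus probe with vehicle; some compounds called inactive have numbers as strong as hits; many hits fall short of the cut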
Target sequence (P11940 whole entry, looked up): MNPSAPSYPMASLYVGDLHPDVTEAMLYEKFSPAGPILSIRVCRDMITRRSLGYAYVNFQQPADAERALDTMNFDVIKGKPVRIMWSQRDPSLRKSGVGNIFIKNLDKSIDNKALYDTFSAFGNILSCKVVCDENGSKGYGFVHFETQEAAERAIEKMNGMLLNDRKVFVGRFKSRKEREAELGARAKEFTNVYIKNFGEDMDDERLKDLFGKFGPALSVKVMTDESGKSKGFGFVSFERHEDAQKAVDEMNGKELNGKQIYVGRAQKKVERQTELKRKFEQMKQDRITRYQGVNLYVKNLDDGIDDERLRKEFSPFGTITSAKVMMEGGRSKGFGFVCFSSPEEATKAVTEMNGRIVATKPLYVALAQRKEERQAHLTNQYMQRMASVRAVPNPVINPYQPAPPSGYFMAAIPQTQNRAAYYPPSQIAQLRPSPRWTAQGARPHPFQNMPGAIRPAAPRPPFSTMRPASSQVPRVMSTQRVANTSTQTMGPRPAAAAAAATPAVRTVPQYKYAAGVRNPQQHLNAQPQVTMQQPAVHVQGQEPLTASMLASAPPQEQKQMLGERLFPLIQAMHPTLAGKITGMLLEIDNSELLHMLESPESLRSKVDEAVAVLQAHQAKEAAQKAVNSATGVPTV
CSC inhib – cancer stem cell viability inhibitors, primary screen, luminescence. cancer stem cell-like cells viability. inhibition, % at 7.5 µM. hit rate 1.1% among 300,000;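 active means mean at 75% or more and at least half the replicates too; tested in HMLE shEcad cells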;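 further: 0% = median of negative and 100% = median of positive control wells; the first replicate is given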
Yeast UUG start – modulators of yeast start codon fidelity, primary screen, whole organism, S. cerevisiae, single point, plate reader; S. cerevisiae UUG-firefly luciferase reporter, luminescence/redox ratio; activity score, % at 18.7 µM; hit rate 0.13% among 350,000; AID 602363, 2012;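 active means replicate mean at a twofold rise or more, about +100% in these data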;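 further: firefly luciferase made from a UUG start codon reports start codon fidelity; reporter light over untreated wells divided by growth signal over untreated wells; some hits fall short of that in this replicate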
MT1-MMP act inh – blockers of MT1-MMP proenzyme processing, primary screen, HT1080 RFP-PRO-GFP cells, GFP/RFP fluorescence. GFP/RFP ratio change, % at 20 µM. Matrix metalloproteinase-14 (Homo sapiens), P50281. AID 651647, 2012. GFP/RFP ratio fluorescence, overnight; percent of plate control window, DMSO zero. hit rate 0.061% among 360,000;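 active means GFP/RFP ratio change of at least 30% with cell ATP level not reduced by more than half and red fluorescence within 50% of control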; further: strong numbers were not always called active
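Read-out: GFP/RFP fluorescence ratio; Test system: RFP-PRO-GFP reporter HT1080 cells; Compound dosing: single-point 20 µM compound, 1% DMSO; Times: overnight compound exposure at 37 °C.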
HIV Env fusion – inhibitors of HIV-1 Env-driven cell-cell fusion, primary screen, HeLa-JRFL effector, CEM21 target cells, luciferase | inhibition, % at 12.3 µM | AID 651610, 2012 | hit rate 1.1% among 360,000;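 active means mean replicate inhibition score of at least 50 and every replicate individually at or above 50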;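 further: 0% = plate neutral controls and 100% = maraviroc near 300 nM; one replicate is shown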
MT1-MMP act inh RFP – recorded beside MT1-MMP act inh, whose call it bears; RFP signal change, %; measured here: RFP expression control read;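 0 = vehicle wells; hits needed this value within 50% of zero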
* hit, by the source's call; i = inactive; . = no result given.

SMILES	Rce1 inhib	eIF4H inh	PABP polyA inh	CSC inhib	Yeast UUG start	MT1-MMP act inh	MT1-MMP act inh RFP	HIV Env fusion
CCCSc1nsc(N)n1	i	-1	4	1	.	18	2	.
O=C(Nc1ccc(F)cc1)C1CCCO1 (centres undefined)	i	2	0	-8	.	2	3	4
COC(=O)CSc1cc(C)nc2ccc(OC)cc12	.	-18	-12	5	-17	0	-5	-74
CSc1nsc2nc(=O)c(/C=C3\C(C)=Nc4ccccc43)c(N)n12	i	31	-9	.	-10	-4	1	-7
COc1ccc(CN2CCN(Cc3ccc(CO)o3)CC2CCO)cc1C (centres undefined)	i	3	-12	-3	3	-10	0	7
Cc1cccc(OCC(=O)NNC(=O)CSc2ncc(C#N)c(N)n2)c1	i	3	-4	-4	-22	5	7	-56
CCOc1ccc(-n2c(-c3ccc(Br)cc3)c[n+]3c2CCCCC3)cc1	i	-1	17	-9	.	-21	-33	38
CSc1ccc(/C=N/n2c(C)cc(C)cc2=O)cc1	i	-5	6	3	-6	2	0	-198
CSc1ccc(CN2CCC(C)(Oc3ccc4ccccc4c3)C2)cc1 (centres undefined)	.	.	.	.	-14	1	-1	33
C=CCN1C(=O)CS/C1=N/c1nccs1	i	-2	9	-19	.	1	2	.
CC(C)(SC(=S)N1CCOCC1)C(=O)O	i	-4	4	-1	.	1	2	.
COC(=O)C1=C(C)N(C)C(=O)/C1=C\c1cccs1	i	-2	3	-12	-9	-1	4	5
CCOc1ccc(Oc2c(C)oc3cc(O)ccc3c2=O)cc1	i	2	6	46	2	0	0	-26
C[C@H](NC(=O)c1nc[nH]c1C(=O)NCC(=O)OC(C)(C)C)C(=O)OCc1ccccc1	i	1	-11	-8	-13	-1	2	-5
Cc1cc(O)c(NC(=O)c2ccc(Br)o2)cc1C	i	1	12	-2	-14	6	3	-14
CC(=C/c1ccccc1)/C=N/N1CCN(Cc2ccc(C)cc2)CC1	i	-2	3	33	-18	-2	2	8
COc1ccccc1N1CCN(S(=O)(=O)c2cc(C(F)(F)F)cc(C(F)(F)F)c2)CC1	i	-9	6	7	-2	1	1	11
COC(=O)Nc1ccc(S(=O)(=O)N(CCO)CC(F)(F)C(F)F)cc1	.	-2	-1	-6	2	0	-1	16
COc1cccc(/C=N/NC(=O)c2cc3c(OC)c(OC)ccc3[nH]2)c1OC	.	-3	0	.	.	2	-9	42
CCN(Cc1ccc2c(c1)OCO2)C(=O)/C=C/c1cccc(Br)c1	i	2	7	25	-8	4	2	15
C=C(C)C(=O)N1CC2(CC(c3cccc(NC(=O)c4ccccc4)c3)=NO2)C[C@@H]1C(N)=O (some centres undefined)	i	-7	0	4	18	3	7	.
CC(=O)c1nn(-c2cccc(Br)c2)cc1C(=O)c1ccccc1	i	3	22	-1	-25	2	-5	-56
CCN(C(=O)CN1CCN(C)CC1)c1c(N)n(Cc2ccccc2)c(=O)[nH]c1=O	.	.	.	-7	-13	-1	3	-16
COCCOC(=O)c1c(C)oc2ccc(OC(=O)c3cccs3)cc12	i	0	-1	-3	4	1	2	-275

Three compounds out of the list, arranged by count of non-hydrogen atoms, high to low.
SMILES	Rce1 inhib	eIF4H inh	PABP polyA inh	CSC inhib	Yeast UUG start	MT1-MMP act inh	MT1-MMP act inh RFP	HIV Env fusion
COc1ccc(CN2CCN(Cc3ccc(CO)o3)CC2CCO)cc1C (centres undefined)	i	3	-12	-3	3	-10	0	7
Cc1cccc(OCC(=O)NNC(=O)CSc2ncc(C#N)c(N)n2)c1	i	3	-4	-4	-22	5	7	-56
CCN(Cc1ccc2c(c1)OCO2)C(=O)/C=C/c1cccc(Br)c1	i	2	7	25	-8	4	2	15

(list continues)
SMILES	Rce1 inhib	eIF4H inh	PABP polyA inh	CSC inhib	Yeast UUG start	MT1-MMP act inh	MT1-MMP act inh RFP	HIV Env fusion
O=C(NNc1ccc([N+](=O)[O-])cc1)C1CC2CCCC(C1)C2=O (centres undefined)	i	2	-4	-13	4	2	6	4
Cc1oc(-c2cccc(Cl)c2)nc1CS(=O)(=O)CC(=O)NC1CC1	i	-4	5	-9	-10	17	-5	6
COc1cccc(N=C2SC(C(=O)Nc3ccc(F)cc3)CC(=O)N2C)c1 (centres undefined)	i	-3	-10	.	4	0	-4	.
O=C(COC(=O)CSc1cc(Cl)ccc1Cl)NCc1ccc2c(c1)OCO2	i	7	14	-9	0	0	2	16
CC(=O)c1cc(-c2ccccc2)n(CC(=O)NC2CCCC2)c1C	i	-1	3	0	-13	0	0	-12
CN1CCN(CCP(=O)(c2ccccc2)c2ccccc2)CC1	i	-8	-1	8	-5	4	5	-60
COc1cccc(NC(=O)C2C3C=CC(O3)C2C(=O)O)c1 (centres undefined)	i	0	-10	-5	-31	4	3	-4
CCC(C(=O)Nc1ccccc1-c1ccccc1)c1ccccc1 (centres undefined)	i	-12	-9	-14	4	-12	-12	.
Cc1ccc([N+](=O)[O-])cc1S(=O)(=O)Nc1ccc(C(=O)N(C)C)cc1	i	-3	5	.	-19	3	6	-11
Cc1ccc(NC(=O)CNC(=O)CN2C(=O)c3ccccc3C2=O)cc1	.	.	.	.	-22	3	6	7
COC(=O)c1cccc(NC(=O)c2ccc3c(c2)C(=O)N(CC2CCCO2)C3=O)c1 (centres undefined)	.	-9	9	.	-26	4	8	-24
Cc1nc(C(=O)NNC(=O)c2ccc(C(F)(F)F)cc2)cs1	i	10	0	10	-17	5	7	4

Compounds above with four or more nitrogen atoms:
SMILES	Rce1 inhib	eIF4H inh	PABP polyA inh	CSC inhib	Yeast UUG start	MT1-MMP act inh	MT1-MMP act inh RFP	HIV Env fusion
CSc1nsc2nc(=O)c(/C=C3\C(C)=Nc4ccccc43)c(N)n12	i	31	-9	.	-10	-4	1	-7
Cc1cccc(OCC(=O)NNC(=O)CSc2ncc(C#N)c(N)n2)c1	i	3	-4	-4	-22	5	7	-56
C[C@H](NC(=O)c1nc[nH]c1C(=O)NCC(=O)OC(C)(C)C)C(=O)OCc1ccccc1	i	1	-11	-8	-13	-1	2	-5
C=C(C)C(=O)N1CC2(CC(c3cccc(NC(=O)c4ccccc4)c3)=NO2)C[C@@H]1C(N)=O (some centres undefined)	i	-7	0	4	18	3	7	.
CCN(C(=O)CN1CCN(C)CC1)c1c(N)n(Cc2ccccc2)c(=O)[nH]c1=O	.	.	.	-7	-13	-1	3	-16

(next part)
SMILES	Rce1 inhib	eIF4H inh	PABP polyA inh	CSC inhib	Yeast UUG start	MT1-MMP act inh	MT1-MMP act inh RFP	HIV Env fusion
O=C(Nc1ccc2[nH]ccc2c1)c1cccs1	i	-3	7	-3	-49	3	-1	-138
Cc1ccc(C)c(Cn2nnc3c(=O)[nH]c(C4CCCN(C(=O)c5cccs5)C4)nc32)c1 (centres undefined)	i	-9	-5	-11	1	-1	-4	11
COc1ccccc1CNc1nc(NCc2ccccc2)nc2ccsc12	.	.	.	.	0	18	-17	18
COc1cc(OC)c(NS(=O)(=O)c2cc(C(=O)OC(C)C(=O)NC3CC3)c(Cl)cc2Cl)cc1Cl (centres undefined)	i	-5	12	11	.	-1	-1	12
Cc1cc(NC2CCCCC2)nc(N2CCOCC2)n1	i	1	1	-7	-7	2	-2	.
Cn1c(SCC(=O)Nc2cccc(S(=O)(=O)N3CCOCC3)c2)nnc1-c1ccncc1	i	-4	6	3	.	-3	2	1
COc1ccc(-n2cnc3sccc3c2=O)cc1	i	-5	1	-16	-5	-3	-1	5
COc1cccc(OC)c1C(=O)Nc1ccc(Br)c(C(=O)c2ccccc2)c1	i	-8	2	36	0	-4	0	17
COc1ccc(-n2ncc(C(C)NS(=O)(=O)c3cc(F)ccc3C)c2C)cc1 (centres undefined)	i	-15	-2	0	-12	-1	-7	29
O=C(O)COc1ccc(NC(=O)c2ccc3c(c2)C(=O)N(Cc2ccccc2)C3=O)cc1	i	13	3	3	0	-1	3	-14
O=C(Nc1ccccn1)c1ccc(C(=O)Nc2ccccn2)cc1	i	-6	15	-9	-12	-1	-5	.
S=c1nc[nH]c2c1ncn2C1CCCO1 (centres undefined)	i	2	-4	122*	-5	3	9	22
CCOC(=O)N1CCN(C(=O)c2ccccc2NC(=O)COc2ccccc2)CC1	i	-7	-13	14	-2	0	-10	.
CCC1=NN2C(=N)/C(=C/c3cc(C)n(Cc4ccccc4)c3C)C(=O)N=C2S1	i	-8	3	5	.	-4	0	3
Cc1nc(C)c(C(=O)OCC(=O)N2CCN(c3ccccc3)CC2)s1	i	1	-8	13	-20	3	3	-42
Cc1cc(C)c2cc(CN(Cc3ccco3)C(=O)NCc3ccccc3)c(=O)[nH]c2c1	i	-3	-2	-2	2	0	-7	.
CCC(C)NC(=O)Cn1c(COc2ccc(Cl)cc2Cl)nc2ccccc21 (centres undefined)	i	-13	-8	-6	-13	2	-1	.
Cc1c(N2C(=O)C(=O)/C(=C(/O)c3ccc(Br)cc3)C2c2cccnc2)c(=O)n(-c2ccccc2)n1C (centres undefined)	.	0	4	-6	.	-4	0	3
N/C(=N\OC(=O)Cc1ccc(-c2ccccc2)cc1)c1cccc([N+](=O)[O-])c1	i	-3	-1	22	-7	2	-2	-16
COc1ccc(N2CC(C(=O)NCCc3ccc(Cl)cc3)CC2=O)c(OC)c1 (centres undefined)	i	.	.	14	-1	2	2	.
O=C(Nc1ccc2c(c1)OCCO2)c1cccnc1Oc1ccc(Cl)cc1	i	-3	2	-3	.	-1	-1	5
O=C(CN1CCN(C(=O)CNC(=O)c2ccc3c(c2)OCO3)CC1)Nc1ccc(F)cc1	.	.	.	.	-17	-3	2	-6
O=C(Nc1cccc(Cl)c1)OCc1cn(-c2ccccc2)nn1	i	0	-1	5	-16	2	-3	24
CN(Cc1ccccc1F)C(=O)COc1ccc(C(=O)c2ccccc2)cc1	i	0	4	20	6	-1	-8	-84

Two of the compounds above, with bars between the fields:
SMILES | Rce1 inhib | eIF4H inh | PABP polyA inh | CSC inhib | Yeast UUG start | MT1-MMP act inh | MT1-MMP act inh RFP | HIV Env fusion
CN(Cc1ccccc1F)C(=O)COc1ccc(C(=O)c2ccccc2)cc1 | i | 0 | 4 | 20 | 6 | -1 | -8 | -84
CCOC(=O)N1CCN(C(=O)c2ccccc2NC(=O)COc2ccccc2)CC1 | i | -7 | -13 | 14 | -2 | 0 | -10 | .

Taken from above:
Entry of COc1cccc(OC)c1C(=O)Nc1ccc(Br)c(C(=O)c2ccccc2)c1 under HIV Env fusion: 17
Entry of C[C@H](NC(=O)c1nc[nH]c1C(=O)NCC(=O)OC(C)(C)C)C(=O)OCc1ccccc1 under MT1-MMP act inh RFP: 2
Entry of Cn1c(SCC(=O)Nc2cccc(S(=O)(=O)N3CCOCC3)c2)nnc1-c1ccncc1 under eIF4H inh: -4

The list continues.
SMILES	Rce1 inhib	eIF4H inh	PABP polyA inh	CSC inhib	Yeast UUG start	MT1-MMP act inh	MT1-MMP act inh RFP	HIV Env fusion
O=C(OCCCOC(=O)c1cc[n+]([O-])cc1)c1cc[n+]([O-])cc1	i	-9	2	-6	-14	0	2	-4
Cc1cc2nc(C)n(CCCNC(=O)Nc3ccccc3)c2cc1C	i	-5	0	-3	-16	-1	-1	13
COc1ccc(C(=O)Nc2nc3ccccc3[nH]2)cc1OC	i	-3	-4	-5	.	9	5	.
COC(=O)C(C)Sc1nnc(Cc2cc(=O)[nH]c(=O)[nH]2)n1-c1cc(C)ccc1C (centres undefined)	i	2	5	-7	-19	-2	5	8
O=C(CSc1nc(-c2ccccc2)cs1)NCCN1C(=O)CSC1=O	i	-11	-9	3	2	0	1	-6
COc1ccc(CN2CCN(C(=O)c3cccs3)CC2)cc1	i	-3	6	-14	-3	1	-2	.
Cc1cc(C)c(C(N)=O)c(SCC(=O)c2cc(C)c(C)cc2C)n1	i	-8	-3	2	-13	4	0	3

An excerpt (hit frequency here may not be typical).
